# High-throughput results as filed in PubChem.
# KCNQ2 block = KCNQ2 channel blockers in CHO-K1 cells – cell-based, FluxOR thallium flux, B-score, primary screen (AID 2156); O88943; 20 min; active compounds read low; only compounds with negative scores are shown here; some inactives read as strong as hits; B-score at 10 µM; 310,000 tested, 1.1% active;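 active = fluorescence ratio B-score at most minus 3 library SDs, with starting brightness B-score within 2 library SDs, cut at about -5.5 in these data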
# Target sequence (O88943 whole entry, looked up): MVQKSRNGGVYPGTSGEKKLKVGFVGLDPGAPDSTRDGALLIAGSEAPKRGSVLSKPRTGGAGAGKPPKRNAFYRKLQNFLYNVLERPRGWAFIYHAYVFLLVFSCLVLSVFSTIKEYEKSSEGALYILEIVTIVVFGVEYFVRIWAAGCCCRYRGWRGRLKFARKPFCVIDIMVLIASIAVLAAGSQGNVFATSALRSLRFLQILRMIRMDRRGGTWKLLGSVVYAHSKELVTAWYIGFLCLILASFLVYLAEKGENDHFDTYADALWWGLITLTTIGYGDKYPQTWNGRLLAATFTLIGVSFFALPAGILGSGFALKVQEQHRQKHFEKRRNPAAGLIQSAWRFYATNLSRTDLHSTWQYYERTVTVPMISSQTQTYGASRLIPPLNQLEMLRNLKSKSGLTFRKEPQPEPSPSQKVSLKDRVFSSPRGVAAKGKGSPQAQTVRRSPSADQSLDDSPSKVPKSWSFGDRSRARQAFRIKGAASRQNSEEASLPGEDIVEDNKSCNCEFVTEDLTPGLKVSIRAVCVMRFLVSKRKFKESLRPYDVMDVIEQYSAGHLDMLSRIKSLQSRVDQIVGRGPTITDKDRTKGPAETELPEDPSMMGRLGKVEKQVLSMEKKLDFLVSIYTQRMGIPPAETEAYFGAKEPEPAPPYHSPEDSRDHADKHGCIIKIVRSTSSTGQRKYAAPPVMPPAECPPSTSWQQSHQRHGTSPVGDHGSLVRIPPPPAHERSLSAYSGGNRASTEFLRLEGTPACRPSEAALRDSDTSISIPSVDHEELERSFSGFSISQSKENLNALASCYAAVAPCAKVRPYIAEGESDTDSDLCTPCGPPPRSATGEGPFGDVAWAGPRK
# KCNQ2 block baseline = recorded beside KCNQ2 block, whose call it bears; B-score; measured here: initial fluorescence intensity artifact check;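 brightness before thallium and not channel activity; 0 = typical well and far values either way flag optical interference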
# Starred values were filed as active, the others as inactive; i = inactive. Some of the compounds tested; the hit share may differ from the screen's.
# Below each compound: KCNQ2 block	KCNQ2 block baseline
CC1CCCCN1CCCNC(=O)c1cc(Br)c(Br)[nH]1 (stereo not given)
 : i	0.37
Cc1ccc(-c2nnn(CC(=O)N(Cc3ccco3)C(C(=O)NC3CCCC3)c3cccs3)n2)o1 (stereo not given)
 : i	0.16
COc1ccc2c(c1)cc(C(=O)N[C@H](C(=O)N1CCC(C(=O)O)CC1)C(C)C)n2C
 : i	-2.27
CCn1cc([N+](=O)[O-])c(C(=O)N2N=C(c3ccc4ccccc4c3)CC2c2cc(Br)ccc2O)n1 (stereo not given)
 : i	-1.22
Cc1ccc(C(=O)NCC(=O)N2CCC3(CC2)NCCc2[nH]cnc23)cc1C
 : i	-0.36
CC1=CC2=NC(=O)/C(=C\c3cccn3CCOc3ccc(C)c(C)c3)C(=N)N2O1
 : i	-0.94
N#CC(C(=O)OCc1ccccc1)c1nc2ccccc2nc1N1CCOCC1 (stereo not given)
 : i	-0.08
COc1ccc(C(=O)N(Cc2ccccc2)Cc2cc3cc4c(cc3[nH]c2=O)OCCO4)cc1
 : i	0.85
Cc1ccc(NC(=O)COC(=O)C2C3CC4OC(=O)C2C4C3)cc1 (stereo not given)
 : i	0.18
CCN(CC)CC(O)CCCCCCCCC(=O)OC (stereo not given)
 : i	-0.21
C/C=C(/C(=C/C)c1ccc(O)cc1)c1ccc(O)cc1
 : i	0.91
CCCC1S/C(=N/N=C/c2ccc(OC)cc2)N(Cc2ccccc2)C1=O (stereo not given)
 : -6.15*	-1.56*
COc1cc(F)ccc1S(=O)(=O)N1CCN(Cc2ccccc2)CC1
 : i	-0.07
Cc1nc(C)c(C(=O)C2=C(O)C(=O)N(CCN(C)C)C2c2cccs2)s1 (stereo not given)
 : i	1.08
COC(=O)c1ccccc1NC(=O)C1CCN(C(=O)N2CCOc3ccccc32)CC1
 : i	-0.8
Cc1ccc(C(=O)Cn2c(-c3ccccc3)noc2=O)cc1
 : i	-0.33
COc1ccc(CCNS(=O)(=O)c2cn(C)c(=O)n(C)c2=O)cc1
 : i	0.31
CCCC12CN3CC(C)(CN(C1)C3c1ccc(OC(C)C)cc1)C2=O (stereo not given)
 : i	-0.29
Cn1c(=O)c2c(nc(SCc3ccccc3)n2Cc2ccc(Cl)cc2)n(C)c1=O
 : i	-0.36
Cn1c(C(=O)NCCN2CCCCCC2)cc2c(=O)n(C)c3ccccc3c21
 : i	-1.16
CCC(C(=O)OC)n1c(-c2ccccc2)nc2ccccc2c1=O (stereo not given)
 : i	1.07
CC12CCC(c3c1nc1ccccc1[n+]3[O-])C2(C)C (stereo not given)
 : i	0.47
O=[N+]([O-])/C(N=Nc1ccccc1)=N\Nc1ccccc1
 : i	-0.17
COc1ccccc1N1CC(C(=O)Nc2ccc3c(c2)OCO3)CC1=O (stereo not given)
 : i	0.65
c1ccc(C(c2nnnn2C2CCCC2)N2CCN(c3ccccc3)CC2)cc1 (stereo not given)
 : i	-0.09
O=C(CSc1nncn1-c1ccccc1)Nc1ccccc1F
 : i	-0.01
S=C(Nc1ccc2c(c1)OCO2)N1CCN(Cc2ccco2)CC1
 : i	1.37
COc1ccc(OC(=O)CCN2C(=O)C3C4C=CC(C4)C3C2=O)cc1 (stereo not given)
 : i	-0.8
CCSc1ncnc2c1oc1ccccc12
 : i	1.43
COc1ccc(C2C(=O)N(C3CCCCC3)CC(=O)N2CC2COc3ccccc3O2)cc1 (stereo not given)
 : i	0.15

# Part of the list above, tab-delimited:
molecule	KCNQ2 block	KCNQ2 block baseline
CCC(C(=O)OC)n1c(-c2ccccc2)nc2ccccc2c1=O (stereo not given)	i	1.07
CC12CCC(c3c1nc1ccccc1[n+]3[O-])C2(C)C (stereo not given)	i	0.47
O=[N+]([O-])/C(N=Nc1ccccc1)=N\Nc1ccccc1	i	-0.17

# New compounds follow
# Below each compound: KCNQ2 block	KCNQ2 block baseline
c1ccc(Nc2scc(-c3ccccc3)[n+]2Cc2ccco2)cc1
 : -6.44*	0.89*
CC(C)CC(=O)NC1(C(F)(F)F)C(=O)Nc2c1c(=O)n(C)c(=O)n2C (stereo not given)
 : i	0.06
Cc1cc(/C=C2\C(=N)N3N=C(C(C)C)SC3=NC2=O)c(C)n1-c1ccccc1
 : i	-0.04
C=CCOc1ccc(Oc2cc(C)nc(SC)n2)nn1
 : i	0.67
Cc1cc(C)nc(/N=C(\N)N2CCc3ccccc32)n1
 : i	2.42
COc1ccc(-c2cc(-c3cccs3)nc3sc(C#N)c(N)c23)cc1
 : i	0.61
Cc1nnc(-c2cnn(-c3ccccc3)c2N)n1Cc1cccc(C(F)(F)F)c1
 : i	1.28
O=C(CCN1CCCC1=O)NC1CCCc2c1cnn2-c1ccc(F)cc1F (stereo not given)
 : i	-0.89
Cc1cccn2c(=O)c(C=C(C#N)C#N)c(N3CCN(c4ccccc4)CC3)nc12
 : i	0.98
CCn1nc(C(=O)Nc2ccc(S(=O)(=O)Nc3ncccn3)cc2)c2ccccc2c1=O
 : i	-0.97
O=C(NC(=S)Nc1ccc(S(=O)(=O)Nc2nccs2)cc1)c1cccnc1
 : i	-0.03
COCCCN1C(=O)c2[nH]nc(-c3cc(C)cc(C)c3O)c2C1c1ccc(O)c(OC)c1 (stereo not given)
 : i	0.19
COc1ccc(CCNC(=O)CSc2ccc(-c3ccco3)nn2)cc1
 : i	-0.15
N/C(=N\OC(=O)Nc1ccc(Cl)c(Cl)c1)c1ncc(C(F)(F)F)cc1Cl
 : i	0.11
O=C(O)/C=C/C(=O)Nc1ccc(OC(F)(F)Cl)cc1
 : i	0.13
COc1ccc(NC(=O)Nc2cc(C)ccc2F)cc1
 : i	-1.84
N#Cc1ccc(S(=O)(=O)N2CCCN(c3nc4ccc(Cl)cc4s3)CC2)cc1
 : i	0.01
Cc1ccc(-n2c(-c3cccc(C)c3)n[nH]c2=S)cc1
 : i	0.11
CCOC(=O)N1CCN(C(=O)CSc2ccc3nnc(CCNC(=O)c4ccc(OC)cc4)n3n2)CC1
 : i	-0.95
Cc1ccc(NC(=O)c2nc(C)n(-c3ccc([N+](=O)[O-])cc3)n2)cc1
 : i	0.39
O=C(CCOc1ccccc1)N1CCN(S(=O)(=O)c2cccs2)CC1
 : i	2.79
Cn1cc(C(=O)C(=O)NCCc2ccccc2)c2ccccc21
 : i	0.56
COc1ccc2cc(/C=N/NC(=O)CN(c3ccccc3C)S(=O)(=O)c3ccccc3)c(Cl)nc2c1
 : i	0.55
c1ccc(C2CCC3(CC2)Oc2ccccc2C2CC(c4cccnc4)=NN23)cc1 (stereo not given)
 : i	-1.57
CC(Oc1cc2oc(=O)c3c(c2cc1Cl)CCC3)C(=O)NCCCn1ccnc1 (stereo not given)
 : i	1.68
O=C(O)[C@@H]1CC(O)CN1C(=O)CCc1c[nH]c2ccccc12 (stereo not given in full)
 : i	0.79
COCC(C)NC(=S)N1CCN(c2ccccc2Cl)CC1 (stereo not given)
 : i	0.01
CCC(c1nnc(SCC(=O)NCCc2ccc(OC)c(OC)c2)n1Cc1ccccc1)N(C)C (stereo not given)
 : i	1.86
CCOC(=O)CN1C(=O)C(O)(CC(=O)c2ccccn2)c2ccccc21 (stereo not given)
 : i	2.58
O=c1[nH]nnc2sc3c(c12)CCCC3
 : i	0.59
COc1cccc(CN2CCN(c3ncccn3)CC2)c1OC
 : i	-0.34
CCCCN(CCCC)S(=O)(=O)c1ccc(NC(=O)c2ccc([N+](=O)[O-])cc2Cl)cc1
 : i	0.88
CN(C)c1ccc(NC(=O)c2ccc(Cn3cc([N+](=O)[O-])cn3)cc2)cc1
 : i	1
COc1ccc(CCNC(=O)C2CC(c3c(Cl)cccc3Cl)=NO2)cc1 (stereo not given)
 : i	0.51
Cn1nc(-c2ccccc2)c(CO)c1Oc1ccc(F)cc1
 : i	0.64
COc1ccc(/C=C/C(=O)Nc2ccc(C(N)=O)cc2)cc1OC
 : i	0.21
COC(=O)c1cc(N2CCN(C)CC2)nc2ccccc12
 : i	0.8
Cn1c(/C=C/c2ccc(Br)cc2)c([N+](=O)[O-])c(=O)n(C)c1=O
 : i	1.3
CCOC(=O)c1sc(NC(=O)CCc2ccc(OC)cc2)nc1C
 : i	-0.45
Cc1cnc(C(=O)Nc2nnc(SCc3c(Cl)cccc3Cl)s2)cn1
 : i	-0.7
Cc1ccc(S(=O)(=O)N2CCC(C(N)=O)CC2)cc1[N+](=O)[O-]
 : i	0.14
NS(=O)(=O)c1ccc(CCNC(=O)Nc2ccc(Cl)cc2)cc1
 : i	2.39
Cc1ccc(O)c(CNc2nc3ccccc3[nH]2)c1
 : i	0.26
CCN1CCN(Cc2ccc(NC(=O)c3cc(NC(=O)c4ccc5n[nH]nc5c4)cc(OC)c3)cc2C(F)(F)F)CC1
 : i	3.28
COc1ccc(C2c3[nH]c4ccccc4c3CCN2C(=O)c2ccccc2C(C)=O)c(F)c1 (stereo not given)
 : i	-3.17
CCOC(=O)Cc1csc2nc3sc(C)c(C)c3c(=O)n12
 : i	-0.36
COc1ccc(OCC(=O)Nc2cc(OC)ccc2N2CCCCC2)cc1
 : i	0.92
CNCc1ccccc1Sc1cccc(O)c1
 : i	-0.65
Cc1ccc(NC(=O)c2ccc3snnc3c2)cc1C
 : i	-0.59
COc1ccc(/C=N/N2C(=O)CN(C(=O)c3ccccc3)C2c2ccc(OC)cc2)cc1 (stereo not given)
 : i	0.27
CCOc1cccc(C(=O)N(Cc2ccco2)C2CCS(=O)(=O)C2)c1 (stereo not given)
 : i	-1.14
Cc1ccc(-n2ncc(C(=O)NC3CC3)c2C2CCN(C(=O)OC(C)(C)C)CC2)c(C)c1
 : i	0.02
Cc1cc2cc(CCNC(=O)C(=O)c3c[nH]c4ccccc34)c(=O)[nH]c2cc1C
 : i	-0.41
O=C(Oc1c(CN2CCOCC2)cc(Cl)c2cccnc12)c1ccccc1
 : i	-0.55
COc1cccc(=O)c2c(C)oc(C)c12
 : i	3.21
O=C(/C=C/c1ccc2c(c1)OCO2)c1ccc(F)cc1
 : i	0.27
O=C(CNC(=O)c1cccc(F)c1)OCCOc1cccc(Cl)c1
 : i	1.81
O=C(Cc1ccccc1)Nc1ccccc1C(=O)N1CCCCC1
 : i	0.17
COc1ccccc1CNC(=O)c1cc2c(C)nn(Cc3ccc(F)cc3)c2s1
 : i	-1.26
CCOC(=O)C1CCN(C(=O)Cn2nc(C)n3nc(-c4ccc(CC)cc4)cc3c2=O)CC1
 : i	-0.13

# In another format: 3 of the compounds above.
SMILES,KCNQ2 block,KCNQ2 block baseline
Cc1cc2cc(CCNC(=O)C(=O)c3c[nH]c4ccccc34)c(=O)[nH]c2cc1C,i,-0.41
CCOC(=O)Cc1csc2nc3sc(C)c(C)c3c(=O)n12,i,-0.36
CN(C)c1ccc(NC(=O)c2ccc(Cn3cc([N+](=O)[O-])cn3)cc2)cc1,i,1

# (next part)
# Below each compound: KCNQ2 block	KCNQ2 block baseline
CCCCCCC(=O)Nc1nnc(CC)s1
 : i	1.73
CC1CCCCN1S(=O)(=O)Cc1ccccc1Cl (stereo not given)
 : i	0.57
COc1ccc(S(=O)(=O)N2CCC[C@H]2C(=O)NC2=NCCS2)cc1
 : i	-2.78
O=C(Nc1cc(Sc2ccccn2)cc([N+](=O)[O-])c1)c1ccc([N+](=O)[O-])cc1
 : i	0.25
CCC(NS(=O)(=O)c1ccc(C)cc1)C(=O)O (stereo not given)
 : i	1.51
Cc1cc(C)nc(SCC(=O)c2ccc(C)c(C)c2)n1
 : i	0.06
O=C(COc1cccnc1[N+](=O)[O-])Nc1ccc2c(c1)OCO2
 : i	1.04
CCOc1ccc(NC(=O)C23CC4CC(C2)CC(c2ccccc2)(C4)C3)cc1
 : i	1.34
C=C(C)C1CC=C(C)/C(=N/NC(=O)CNc2ccc(C)cc2C)C1 (stereo not given)
 : i	0.07
O=S(=O)(NCc1ccccn1)c1ccc(Cl)c(C(F)(F)F)c1
 : i	-0.03
CCOC(=O)CN1C(=O)CCSc2ccc(Cl)cc21
 : i	-0.38
COC(=O)c1c(C)oc(C)c1S(=O)(=O)NCc1ccc(Cl)cc1Cl
 : i	0.01
COc1cccc(N2CCN(C(=O)c3oc4ccccc4c3NC(=O)CCc3cc(OC)no3)CC2)c1
 : i	0.11
CS(=O)(=O)N(Cc1ccc(Cl)cc1)c1ccc(C(=O)NCC2CCCO2)cc1 (stereo not given)
 : i	-0.02
COc1ccc2c(c1)C1=NN(/C(C)=C/C(C)=O)C(c3ccc(F)cc3)C1CC2 (stereo not given)
 : i	-1.18
NC(=O)C1CCN(C(=O)c2ccco2)CC1
 : i	-0.19
Fc1ccc(C2CCNCC2COc2ccc3c(c2)OCO3)cc1 (stereo not given)
 : -6.21*	0.02*
Cc1ccc(C(=O)c2no[n+]([O-])c2C(=O)c2ccc(C)cc2)cc1
 : -9.7*	2.75*
N#C/C(=C\c1ccccc1[N+](=O)[O-])C(=O)NC1CCCCC1
 : -6.86*	1.37*
COc1ccc(OC)c(CCNC(=O)Cn2nc(C)c3c(C)n(-c4ccc(C)cc4)nc3c2=O)c1
 : i	0.05
CC(C)c1onc(C(=O)N2CCN(Cc3ccccc3)CC2)c1[N+](=O)[O-]
 : i	-1.01
COc1ccc(C(CNC(=O)c2cccc(S(=O)(=O)NCc3ccccc3)c2)N(C)C)cc1 (stereo not given)
 : i	1.09
COc1ccc(NCc2nnc(SCC(=O)NCc3ccccc3)n2-c2ccccc2OC)cc1
 : i	1.04
COc1cccc(-c2nc3ccc(C(=O)NC(C)Cc4cccnc4)cc3o2)c1 (stereo not given)
 : i	3.87

# Compound profiles, from the list above. Order of screens: KCNQ2 block	KCNQ2 block baseline
# Shown for Cc1cc(C)nc(SCC(=O)c2ccc(C)c(C)c2)n1 : i	0.06
# Shown for COc1ccc2c(c1)C1=NN(/C(C)=C/C(C)=O)C(c3ccc(F)cc3)C1CC2 (stereo not given) : i	-1.18
# Shown for COc1ccc(NCc2nnc(SCC(=O)NCc3ccccc3)n2-c2ccccc2OC)cc1 : i	1.04
